TRPML1 ag: activates the human TRPML1 channel; Q9GZU1; TRPML1-expressing cells, Ca2+ dye fluorescence, FDSS; host cell line not named in the record; reference of the full effect not given here; activation, % (no concentration beside the values); 410,000 tested, 0.12% active; AID 624414; in the data active = activation above about 50%; inconclusive = about 30% to 50%; inactive = below about 30%; note: 0% is about no effect; the text of the record puts the active cut at 80%
Target sequence (Q9GZU1 whole entry, looked up): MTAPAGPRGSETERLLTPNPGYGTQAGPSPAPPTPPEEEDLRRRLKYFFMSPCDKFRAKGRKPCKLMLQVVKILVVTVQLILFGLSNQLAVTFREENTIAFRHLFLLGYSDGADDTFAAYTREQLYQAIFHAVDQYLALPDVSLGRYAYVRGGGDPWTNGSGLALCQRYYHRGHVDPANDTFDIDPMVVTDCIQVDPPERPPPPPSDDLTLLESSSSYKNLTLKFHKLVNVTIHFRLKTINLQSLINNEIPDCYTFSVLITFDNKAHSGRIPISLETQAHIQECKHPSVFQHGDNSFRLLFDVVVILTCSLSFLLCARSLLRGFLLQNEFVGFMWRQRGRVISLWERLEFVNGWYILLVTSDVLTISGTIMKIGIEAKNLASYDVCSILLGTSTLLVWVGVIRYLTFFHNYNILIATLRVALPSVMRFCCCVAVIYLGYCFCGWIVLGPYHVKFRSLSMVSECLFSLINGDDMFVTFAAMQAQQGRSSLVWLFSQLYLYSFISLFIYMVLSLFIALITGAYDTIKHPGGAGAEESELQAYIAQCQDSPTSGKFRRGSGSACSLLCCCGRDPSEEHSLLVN
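Cells: TRPML1-DL, 1X Tet inducer, ~16 h at 37 degrees C/5% CO2. Dye: ABD Ca8 no-wash + quencher, 45-90 min RT. Read: 10 s baseline, compound add, 110 s agonist phase; 54-4 EC80 (4uM final), 110 s antagonist phase.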
ClpP mod: qHTS Assay for Activators of ClpP; ATP-dependent Clp protease proteolytic subunit (Bacillus subtilis (strain 168)), P80244; purified B. subtilis ClpP, FRET peptide cleavage, 20 min; Potency, µM (highest dose often 57.5 µM), inactives show at the highest dose activity change, negative = active; 340,000 tested, 1.9% active; AID 651965, 2013; active = well fitted falling curve with a large enough effect; inconclusive = small, poorly fitted or top-dose-only effect; inactive = no such curve, though single readings can be large or run the other way; note: potency is the fitted concentration of half-maximal effect; the source files actives as falling curves though it sought activators and does not explain the sign; nearly all actives have a fitted effect of over 65% in size; many hits overshoot -100%
Target sequence (P80244 whole entry, looked up): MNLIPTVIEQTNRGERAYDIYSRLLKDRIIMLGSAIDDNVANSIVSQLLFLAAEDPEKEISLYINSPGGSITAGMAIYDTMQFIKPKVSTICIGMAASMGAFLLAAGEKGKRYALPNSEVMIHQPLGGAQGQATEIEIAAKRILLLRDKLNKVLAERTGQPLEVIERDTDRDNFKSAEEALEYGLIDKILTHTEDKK
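ClpP 10 microg/mL final, pH 8 Tris/KCl buffer with BSA, glycerol, Tween-20; compound pinned in; FRET-FV substrate; RT 20 min; Ex320/Em430; ΔFRET vs ADEP 5.8 microM, DMSO, no enzyme.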
* marks the source's active call; other numbers are inactive results; ? = inconclusive. Some of the compounds tested; the hit share may differ from the screen's.

SMILES | TRPML1 ag | ClpP mod
COc1cccc(-c2cnc3c(NC(C)=O)cc(-c4cccc(NS(C)(=O)=O)c4)cn23)c1 | -0.7 | -19%
CCN(N=O)c1ccc(/C=C/c2ccnc3ccccc23)cc1 | 1.7 | 1.2%
FC(F)C(F)(F)Oc1cccc(Nc2nccn3c(-c4ccc5ccccc5c4)cnc23)c1 | -0.3 | 4.1%
Cc1ccc(NC(=O)c2cc(-c3cc(F)ccc3OCC3CCCO3)n[nH]2)cc1NS(C)(=O)=O (stereo not given) | 0.0 | -0.4%
COC(=O)C1CCN(C2CN(C3CCCCC3)S(=O)(=O)C2)CC1 (stereo not given) | -0.6 | -5.1%
CCCCNC(=O)C1(C)CCCCN1Cc1ccc(OCc2ccccc2)cc1 (stereo not given) | -0.3 | -11%
CC(O)C(NC(=O)OCc1ccccc1)C(=O)NCC(=O)NCC(=O)OCc1ccccc1 (stereo not given) | -0.2 | -1.4%
CC(=O)c1cccc(-c2cnc3c(NC=O)cc(-c4ccc(C(=O)N5CCOCC5)cc4)cn23)c1 | -0.8 | -12%
O=CC(=O)c1ccc(Cl)cc1 | -0.4 | 0.3%
N#Cc1c(Cl)cccc1N1CCSCC1 | -1.0 | 5.2%
Cc1cc2ccc(Cl)nc2nc1C | -0.6 | -4.4%
NC(=O)COC(=O)c1ccccc1OCC(=O)Nc1ccc(Br)cc1 | -0.1 | -1.9%
CCOC(=O)[C@]12CCC=C1N(Cc1ccc(Cl)cc1Cl)C(=O)[C@H](CC(=O)N1CCSCC1)C2 | -0.7 | -3.1%
COc1ccccc1Cc1c(-c2ccc(Cl)cc2)nc2c3ccccc3ccn12 | 1.1 | ?
COc1ccccc1CCC(=O)O | -0.2 | -4.0%
Cc1cccc(-c2cnc3cccnn23)c1 | -0.6 | 4.7%
O=C(C[N+]12CN3CN(CN(C3)C1)C2)c1ccc(Cl)cc1 | 0.4 | -0.2%
O=C(CC[C@H]1O[C@@H](n2ccc(=O)[nH]c2=O)[C@H](O)[C@@H]1O)NCc1ccccc1 | -0.3 | -0.8%
COc1cccc(Nc2nc(C(N)C3CCCCC3)cs2)n1 (stereo not given) | 0.0 | -1.9%
CCCCN(C=O)c1c(CC)nc2c(OCc3ccccc3C(=O)OC)cccn12 | -1.1 | -0.7%
CCc1nc2ccc(C(=O)Nc3cccc(OCC(=O)N(C)C)c3)cn2c1N(C)C(=O)c1cccc(OC)c1 | 0.1 | -3.0%
CC(=O)Nc1ccc(-c2ccnc3c2CC(C(=O)Nc2cccc(C(C)=O)c2)O3)cc1 (stereo not given) | -0.5 | -23%
COC(=O)[C@@]1(C(C)C)N=C(c2cc(OC)c(OC)c(OC)c2)[C@]2(O1)C(=O)N(C)c1ccc(Cl)cc12 | 0.6 | 1.4%
O=C(NCc1ccccc1)[C@@H]1CCCN1C(=O)[C@@H]1CCCN1C(=O)c1ccc(Cl)cc1Cl | -0.5 | 1.2%
Cc1cc(C)cc(CC(=O)N2CCC2(C)C(=O)NS(=O)(=O)Cc2ccccc2)c1 (stereo not given) | -0.2 | -2.0%

Three records drawn at random from those above:
SMILES | TRPML1 ag | ClpP mod
COC(=O)[C@@]1(C(C)C)N=C(c2cc(OC)c(OC)c(OC)c2)[C@]2(O1)C(=O)N(C)c1ccc(Cl)cc12 | 0.6 | 1.4%
COc1cccc(-c2cnc3c(NC(C)=O)cc(-c4cccc(NS(C)(=O)=O)c4)cn23)c1 | -0.7 | -19%
CC(=O)c1cccc(-c2cnc3c(NC=O)cc(-c4ccc(C(=O)N5CCOCC5)cc4)cn23)c1 | -0.8 | -12%

Going on with the list.
SMILES | TRPML1 ag | ClpP mod
CC1=C(C(=O)N2CCCCCC2)CC(CC(=O)NC2CCCCC2)C(=O)N1Cc1ccccc1 (stereo not given) | -0.6 | 0.6%
OC(c1cccc(Cl)c1)c1ncc(-c2ccc(C(F)(F)F)cc2)[nH]1 (stereo not given) | 0.0 | -2.7%
COCCN1C[C@@H](CO)O[C@@H](n2cnc3c(N(C)C)ncnc32)C1 | -0.3 | -0.1%
Fc1ccc2nc(-c3ccccc3)ccc2c1 | -0.6 | -1.6%
C[N+]1(CC(=O)c2ccc(I)cc2)CCOCC1 | -0.1 | -0.3%
Nc1[nH]c(C(=O)c2ccccc2)c(-c2ccc(Cl)cc2Cl)c1C(=O)NCCc1c[nH]c2ccccc12 | -0.6 | 0.4%
COC(=O)N1CCCC(c2cc(C(=O)Nc3ccccc3Cl)no2)C1 (stereo not given) | -1.1 | 0.7%
CCNC(=O)C1(C)CCN(C(=O)CCc2ccccc2)C1 (stereo not given) | -0.5 | -0.7%
CC(C)N(C)c1ncnc2c1ncn2[C@H]1CN(Cc2ccc(F)cc2)C[C@@H](CO)O1 | -0.6 | 0.0%
CN(C)c1ccc(/C=C/c2ccnc3ccccc23)c(N)c1 | 13 | 1.7%
O=C1NC[C@H](CCCCN2C[C@@H](Cc3ccccc3)N(CCC3CCCCC3)C(=O)C2=O)N(CCC2CCCCC2)C1=O | -0.8 | 1.5%
CC(=O)c1cccc(-c2ccnc3c2CC(C(=O)Nc2cccc(C(F)(F)F)c2)O3)c1 (stereo not given) | -0.3 | -1.2%
COc1ccccc1Cc1c(-c2ccco2)nc2cc(C)c(Br)c(C)n12 | 0.2 | -4.3%
C[N+]1(CC(=O)c2ccc(Br)cc2)CCOCC1 | -0.3 | 2.1%
Cc1cc(C)c(C#N)c(Sc2nc(C)c([N+](=O)[O-])c(C)c2C#N)n1 | -1.0 | -2.2%
CCc1nc2ccc(C(=O)NCc3ccccc3OC)cn2c1N(C=O)CCC(C)C | -0.7 | -12%
CC(C)(C)CN1C(=O)C(=O)NC[C@@H]1CC1CCCCC1 | -0.2 | -3.3%
CCCC(=O)N1CCCC(c2cc(C(=O)Nc3ccccc3)no2)C1 (stereo not given) | -1.0 | 0.6%
O=C1CCCN1CCCNc1nc(NCc2cccs2)nc2ccsc12 | 57* | ?
C[C@@H](c1ccccc1)N1C[C@H](COCc2ccccc2)Oc2cc(N3CCC[C@H]3C(N)=O)ccc2S1(=O)=O | -0.6 | -7.0%
COC(=O)c1ccc(CC2(C)C(=O)Nc3ccc(-c4cccc(C(F)(F)F)c4)cc32)o1 (stereo not given) | 0.7 | -3.3%
CC(O)(c1cccnc1)c1nc(-c2ccc(S(C)(=O)=O)cc2)cs1 (stereo not given) | -0.6 | -3.2%
O=C(Nc1cccc(F)c1)N1CCc2nc(NCc3cccc(Oc4ccccc4)c3)ncc2C1 | -0.9 | -13%
Cc1cc(C)cc(CC(=O)N2CCC2(C)C(=O)NS(=O)(=O)c2cc(C)ccc2F)c1 (stereo not given) | -0.7 | -1.1%
O=C(Nc1ccc2c(c1)OCCO2)C1c2ccccc2OCC(=O)N1Cc1ccccc1 (stereo not given) | -0.5 | 2.9%

Shown with values under each structure: 5 of the compounds above
Values in the order: TRPML1 ag | ClpP mod
CC(C)(C)CN1C(=O)C(=O)NC[C@@H]1CC1CCCCC1
 : -0.2 | -3.3%
CCCC(=O)N1CCCC(c2cc(C(=O)Nc3ccccc3)no2)C1 (stereo not given)
 : -1.0 | 0.6%
O=C1CCCN1CCCNc1nc(NCc2cccs2)nc2ccsc12
 : 57* | ?
C[C@@H](c1ccccc1)N1C[C@H](COCc2ccccc2)Oc2cc(N3CCC[C@H]3C(N)=O)ccc2S1(=O)=O
 : -0.6 | -7.0%
COC(=O)c1ccc(CC2(C)C(=O)Nc3ccc(-c4cccc(C(F)(F)F)c4)cc32)o1 (stereo not given)
 : 0.7 | -3.3%

(more compounds)
SMILES | TRPML1 ag | ClpP mod
CC(=NNC(=O)c1ccccc1N)c1ccccc1O | -0.5 | 5.2%
Cc1ccc(CNC(=O)Nc2nnc([C@@H]3C[C@H](O)[C@@H](CO)O3)s2)cc1 | -0.2 | -1.5%
CCOC(=O)[C@@H](C)N(C(=O)OC(C)(C)C)S(=O)(=O)N(Cc1ccccc1)[C@@H](C(=O)OC)C(C)C | 57* | 1.8%
CCN(CC)C(=O)c1csc([C@@H]2O[C@H](CO)[C@H](O)[C@H](O)[C@H]2O)n1 | -0.2 | -0.1%
Cc1ccc(C(O)c2ncc(-c3cccc(C(F)(F)F)c3)[nH]2)cc1F (stereo not given) | -0.7 | -8.8%
O=C(NCc1cccnc1)c1csc([C@H]2C[C@H](O)[C@@H](CO)O2)n1 | 0.1 | 0.6%
CSc1ccc(CN2C(=O)C(C)ON=C2c2ccccc2F)cc1 (stereo not given) | -0.6 | -0.9%
O=C1c2ccccc2C(=O)N1CC(O)COc1cccc2ccccc12 (stereo not given) | -0.6 | -1.4%
CC1(C(=O)NCc2ccccc2)Cc2c(-c3ccccc3)ccnc2O1 (stereo not given) | -0.2 | -0.9%
CC(C)[C@@H]1O[C@H](CCc2ccccc2)CC2=C1C(=O)OC(C)(C)O2 | -0.6 | 1.8%
CCOC(=O)[C@]12CCC=C1N(Cc1ccccc1)C(=O)[C@H](CC(=O)NCc1cccc3ccccc13)C2 | -0.5 | -5.4%
O=C1CCCCC(=O)[C@H](O)C[C@H](c2ccccc2)O1 | -0.4 | 0.2%
CC(=O)Nc1cc(-c2ccccc2F)cn2c(-c3ccccc3)cnc12 | -0.6 | -25%
CCOC(=O)CSc1nc2cc(OC)c(OC)cc2cc1C#N | -0.6 | 32µM*
CCOC(=O)[C@]12CCC=C1N(CCC1=CCCCC1)C(=O)[C@H](CC(=O)NCCc1ccccc1OC)C2 | -0.6 | -0.2%
CC(NNC(=S)N1CCCCCC1)c1ccc2ccccc2n1 (stereo not given) | -0.8 | -8.2%
COc1ccc(NC(=O)c2cc(-c3cc(F)ccc3OCC3CCCO3)n[nH]2)c(C)c1 (stereo not given) | -1.3 | -1.3%
Cc1ccccc1OC1(C)CCN(Cc2ccc(-c3ccccn3)cc2)C1 (stereo not given) | -1.0 | 0.1%
CC(=O)NC1=CC(=O)c2nonc2C1=O | 0.0 | ?
COc1ccccc1C(NC(=O)C1CCN(CCc2ccc(Br)cc2)CC1)c1ccccn1 (stereo not given) | -0.2 | 0.5%
COc1ccc(C(O)c2ncc(-c3ccccc3)[nH]2)cc1 (stereo not given) | -0.7 | -0.1%
COc1ccc(/C=C2/C=Cc3ccccc32)cc1 | -0.2 | 0.1%
CCc1nc2c(OCc3c(C)noc3C)cccn2c1N(C=O)Cc1ccc(OC)cc1 | -0.9 | -6.1%
CC1=C(C(=O)N2CCCCCC2)CC(CC(=O)NCCCN(C)C)C(=O)N1Cc1ccc(F)cc1 (stereo not given) | -0.6 | 1.8%
COCCN(CCOC)Cc1cc(=O)oc2cc(OC)ccc12 | -0.6 | ?

Additional results.
SMILES | TRPML1 ag | ClpP mod
CC(CC(=O)Nc1ccc2c(c1)c(=O)n(C)n2-c1ccc2ccccc2c1)C(F)(F)F (stereo not given) | 20 | 5.1%
COc1ccc(OC)c(/C=C/c2cc3ccccc3c[n+]2C)c1 | -0.4 | -1.2%
O=C1CCCCCCC(=O)[C@H](O)C[C@H](c2ccccc2)O1 | -0.3 | 2.8%
CCCc1nc2c(Cl)cc(C(F)(F)F)cn2c1Cc1ccc(OC)cc1C | -0.9 | -4.1%
COc1ccccc1/C=C/c1ccnc2ccccc12 | -1.0 | ?
CCOc1ccc(Cl)cc1-c1cc(C(=O)NC(C)C)[nH]n1 | -1.4 | -1.8%
O=C(C[n+]1ccccc1Cl)c1ccc(F)cc1 | -0.4 | -7.7%
CCCNC(=O)C1(C)CCN(C(=O)COc2ccc(C(C)(C)C)cc2)C1 (stereo not given) | -0.9 | 2.3%
COc1ccc(C(C)=O)cc1CN1C(=O)C(C)ON=C1c1ccccn1 (stereo not given) | -0.9 | 0.4%
C[C@H]1COc2cc(N3CCC[C@@H]3CO)ccc2S(=O)(=O)N1 | -0.3 | -3.7%
O=C(NC(c1ccccc1)c1ccsc1)C1CCN(Cc2ccccc2)CC1 (stereo not given) | 0.1 | -2.0%
CCCCCC1CCNCC1 | -0.2 | -21%
CCOc1ccc2nc(S(=O)(=O)NC(=O)C3(C)CCN3C(=O)CCc3cccs3)sc2c1 (stereo not given) | -0.4 | -12%
CNC(=O)OCc1nc(SC2CCCCO2)n(C)c1COC(=O)NC (stereo not given) | -0.6 | -2.1%
Cc1cc2nc(-c3ccco3)c(Cc3ccccc3C(F)(F)F)n2c(C)c1Br | -0.3 | -3.8%
COc1cccc(S(=O)(=O)N2CCN(c3nc(-c4cccs4)nc4ccccc34)CC2)c1 | 0.4 | 4.0%
OC[C@@H]1CN(Cc2ccc(F)cc2)C[C@H](n2cnc3c(N4CCCC4)ncnc32)O1 | -0.3 | -1.1%
CC1(C(=O)NS(=O)(=O)c2cccc(C#N)c2)CCN1C(=O)CCc1ccccc1 (stereo not given) | -0.1 | 1.8%
COc1cccc(NC(=O)C2(C)CCN2Cc2cccc(OC)c2F)c1 (stereo not given) | -0.6 | 1.1%
COc1cc(Nc2ccn3nc(-c4ccc(F)cc4)cc3n2)cc(OC)c1OC | -0.8 | 12%
CCOC(=O)[C@]12CCC=C1N(Cc1ccco1)C(=O)[C@H](CC(=O)N1CCN(C(=O)c3ccco3)CC1)C2 | 0.4 | 0.7%
CC(C)CNc1ncnc2c1ncn2[C@H]1CN(Cc2ccc(F)cc2)C[C@@H](CO)O1 | -0.1 | -2.5%
COC(=O)[C@@]1(C(C)C)N=C(c2cc(OC)c(OC)c(OC)c2)[C@]2(O1)C(=O)Nc1ccccc12 | -0.1 | -0.8%

Assay outcomes deposited in PubChem BioAssay by National Center for Advancing Translational Sciences (NCATS).
